Menin MLL FP FL: inhibitors of human menin-MLL interaction, wild-type MLL peptide; Fluorescence polarization, fluorescein-MLL peptide displacement from menin; FP activity change, % at 61.4 µM; 290,000 tested, under 10 active; inconclusive = falling polarisation curve, or a change in total fluorescence; inactive = total fluorescence flat and polarisation flat or rising; no compound was filed as active; the % refers to the polarisation; negative = inhibition;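 also: % of control where 0% means no effect; inhibitors lower the polarisation; unlabelled MLL peptide was the positive control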
TRPML1 agonist: agonists of human TRPML1 channel; TRPML1-expressing cells, Ca2+ dye fluorescence, FDSS; host cell line not named in the record; reference of the full effect not given here; activation, % (no concentration beside the values); 410,000 compounds, 0.12% hits; AID 624414; in the data active = activation above about 50%; inconclusive = about 30% to 50%; inactive = below about 30%; also: 0% is about no effect; the text of the record puts the active cut at 80%
Target sequence (Q9GZU1 whole entry, looked up): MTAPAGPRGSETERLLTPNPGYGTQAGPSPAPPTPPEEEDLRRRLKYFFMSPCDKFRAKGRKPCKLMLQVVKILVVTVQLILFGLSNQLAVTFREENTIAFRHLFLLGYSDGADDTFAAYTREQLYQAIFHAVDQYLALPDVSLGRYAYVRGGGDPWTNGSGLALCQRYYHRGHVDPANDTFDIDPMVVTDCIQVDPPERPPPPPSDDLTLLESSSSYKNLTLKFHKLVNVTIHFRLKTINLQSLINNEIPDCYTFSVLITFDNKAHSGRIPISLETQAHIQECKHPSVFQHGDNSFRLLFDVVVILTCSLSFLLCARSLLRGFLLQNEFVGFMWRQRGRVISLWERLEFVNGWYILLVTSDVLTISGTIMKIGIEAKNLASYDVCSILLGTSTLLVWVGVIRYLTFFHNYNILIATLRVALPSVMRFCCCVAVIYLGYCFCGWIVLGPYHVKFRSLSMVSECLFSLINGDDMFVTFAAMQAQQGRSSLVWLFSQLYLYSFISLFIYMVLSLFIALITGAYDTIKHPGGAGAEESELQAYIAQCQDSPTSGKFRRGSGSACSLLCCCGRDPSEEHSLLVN
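Tet-induced TRPML1-DL cells, 1,500 per well, cultured overnight, were loaded with a no-wash Ca2+ dye for 45–90 min. Calcium fluorescence was recorded on the FDSS for 110 s after compound addition, before the EC80 agonist (4 uM 54-4) was added.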
ClpP mod: qHTS Assay for Activators of ClpP; 340,000 compounds, 1.9% hits; purified B. subtilis ClpP, FRET peptide cleavage, 20 min; AID 651965, 2013; Potency, µM (titrated, usually from 57.5 µM), inactives show at the top dose activity change, negative = active; active = well fitted falling curve with a large enough effect; inconclusive = small, poorly fitted or top-dose-only effect; inactive = no such curve, though single readings can be large or run the other way; also: potency is read from the fitted curve at half-maximal effect; the source files actives as falling curves though it sought activators and does not explain the sign; nearly all actives have a fitted effect of over 65% in size; many hits overshoot -100%
Target sequence (P80244 whole entry, looked up): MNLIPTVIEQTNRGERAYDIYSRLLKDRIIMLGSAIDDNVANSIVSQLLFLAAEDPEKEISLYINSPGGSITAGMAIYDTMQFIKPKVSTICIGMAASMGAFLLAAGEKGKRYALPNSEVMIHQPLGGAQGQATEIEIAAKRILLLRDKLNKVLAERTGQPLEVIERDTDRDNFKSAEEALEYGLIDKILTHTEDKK
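FRET quenching reversal measured ClpP activation: 10 microg/mL B. subtilis ClpP at pH 8 with the FRET-FV decapeptide, read at 430 nm after 320 nm excitation. The 20-min minus 0-min signal was scaled between DMSO/no-enzyme wells and ADEP (5.8 microM final).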
gsp antagonist: antagonizes gsp, the McCune-Albright syndrome mutation. Potency, µM (doses to about 76.9 µM), without a hit: at the highest dose activity change, negative = inhibition, actives largely listed as inhibitors. 340,000 compounds, 0.4% hits. gsp-mutant cells, cAMP HTRF, 30 min; control for the full effect not named in the record; active = falling curve of any shape with a large fitted effect; inconclusive = falling curve, mostly with a smaller effect; inactive = flat or rising curve; cell line not stated here;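 also: intracellular cAMP measured with PDE inhibitor Ro 20-1724 present during compound exposure; potency is read from the fitted curve at half-maximal effect; % is scaled to controls: 0 for no effect and ±100 for the full control effect; nearly all actives have a fitted effect of over 65% in size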
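Cells in G418 medium, seeded 16-24 h, 37C; buffer exchange to DPBS + 1 mM CaCl2, 0.5 mM MgCl2, 0.05% BSA; cpds in DMSO + […] (300 uM stock), 30 min 37C; HTRF cAMP detection.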
TRPML1 blocker: blocks the human TRPML1 channel | TRPML1-inducible cells, Ca2+ dye fluorescence, FDSS; hits give low values; inhibition of EC80 agonist-evoked calcium signal | AID 624415 | activity change, negative = inhibition, % (test concentration not listed) | 390,000 compounds, 0.02% hits; in the data active means activity change below about -50%; inconclusive means about -30% to -50%; inactive means above about -30%;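 also: stimulus is agonist 54-4 at its EC80 concentration; % is scaled to controls: 0 for no effect and ±100 for the full control effect; compound concentration not given in the record; the text of the record puts the active cut at -80%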
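Tet-induced TRPML1-DL cells loaded with Ca8 no-wash calcium dye were read kinetically on FDSS. Compound addition was followed by EC80 agonist 54-4 (4 uM final); inhibition was read over 110 s.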
gsp agonist: agonists of gsp mutant (McCune-Albright syndrome) | gsp mutant cells, cAMP HTRF, 30 min; control for the full effect not named in the record | Potency, µM (titrated, usually from 76.9 µM), for the others: at the top dose activation (cAMP increase), usual class: activators | 340,000 compounds, 0.13% hits; active = well fitted activation curve with a large enough effect; inconclusive = small, poorly fitted or top-dose-only effect, or another doubt; inactive = no such curve, though single readings can be large or run the other way; cell line not stated here;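 also: phosphodiesterase inhibitor Ro 20-1724 added with compounds to block cAMP breakdown; potency is read from the fitted curve at half-maximal effect; nearly all actives have a fitted effect of over 60% in size; about a fifth of the inactives were tested at one dose only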
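Cells in DMEM/10% FBS with G418 were pretreated with compounds in DMSO plus […] (300 uM stock) for 30 min at 37C. cAMP was measured by HTRF (cAMP-d2 plus anti-cAMP antibody-K) after 30 min at room temperature.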
Numbers without * were called inactive; ? = inconclusive; . = no result given; & = joins results of further samples; [ ] = another dose, or the depositor's remark.

Values in the order: TRPML1 blocker	Menin MLL FP FL	ClpP mod	gsp antagonist	gsp agonist	TRPML1 agonist
> CCC(CC)C(=O)c1c[nH]c(C(=O)NCCCN2CCOCC2)c1
 : -14	4.4	8.7%	6%	-9%	-0.1
> COc1ccc(Cl)cc1N(CC(=O)N1CCCC1)S(=O)(=O)c1ccc(C)cc1
 : -2	1.2	.	-22%	?	16
> Cc1ccc(C(C(=O)NCC2CCCO2)N(C(=O)c2snc(C(N)=O)c2N)c2ccccc2)o1 (stereo not drawn)
 : -2	0.0	.	-23%	3%[15.4 µM]	-0.4
> O=C(Nc1ccc(N2CCOCC2)c(Cl)c1)c1cccc(-n2cnnc2)c1
 : 5	.	1.2%	1%	-12%[15.4 µM]	-0.6
> Cc1cc(OCCn2ccnc2)cc(C)c1Cl
 : -7	7.2	1.8%	-6%	-20%	-1.3
> COc1ccc(CCNC(=O)Cc2ccc(NC3=NC4CS(=O)(=O)CC4S3)cc2)c(OC)c1 (stereo not drawn)
 : 12	0.3	1.3%	10%	-6%	-0.2
> O=C(O)CCc1nn2cnc3sc4c(c3c2nc1=O)CCCC4
 : -10	1.5	-6.3%	6%	?	0.1
> CC(=O)Nc1ccc(NC(=O)c2ccc(-c3ccc([N+](=O)[O-])cc3)o2)cc1
 : -3	0.4	0.8%	-7%	2%	0.3
> O=C(CCNS(=O)(=O)c1ccc2c(c1)CCC(=O)N2)Nc1ccc(F)c(F)c1
 : -14	.	.	11%	-17%	0.2
> CCN(CC)c1nc2c(S(=O)(=O)c3ccc(C)cc3)nnn2c2ccsc12
 : 13	.	-6.4%	.	.	-0.3
> O=c1c2c3c(sc2nnn1Cc1ccc(Br)cc1)CCCC3
 : -10	.	-1.3%	.	.	-0.4
> CN1CCOCCOCCOCCN(C)C1=S
 : -15	0.0	.	-3%	-13%[15.4 µM]	-0.3
> CC(C)c1noc2ncc(C(=O)c3cc(Cl)cc(Cl)c3O)cc12
 : -12	6.9	0.2%	?	-11%	1.2
> O=C(COC(=O)c1ccco1)NC1CCCC1
 : -3	1.3	.	7%	2%[15.4 µM]	1.0
> CCCCNC(=O)c1onc(CSc2cc(C)cc(C)c2)c1C(=O)NCCCC
 : 18	.	-3.1%	-4%	.	2.3
> O=C(COC(=O)Cc1ccsc1)Nc1ccccc1Cl
 : 17	.	0.6%	8%	-19%	-0.8
> CCc1noc(C)c1C(=O)OCC(=O)NCc1ccccc1
 : 10	.	0.6%	9%	19%	-0.6
> Cn1c(=NC(=O)COc2ccccc2)sc2cc(F)cc(F)c21
 : .	4.1	-6.6%	14%	?	.
> COc1ccc(C(=O)c2ccc([N+](=O)[O-])cc2)c(OC)c1OC
 : -8	.	-0.2%	-6%	-1%[15.4 µM]	0.3
> CCOc1ccccc1OCC(=O)NC1CCSc2ccccc21 (stereo not drawn)
 : -5	.	-3.4%	.	-70%[inhibitor]	0.8
> CCC12CN(C(=O)c3ccc([N+](=O)[O-])cc3)CC(CC)(CN(C(=O)c3ccc([N+](=O)[O-])cc3)C1)C2=O
 : 37	-1.1	1.6%	-4%	0%	0.5
> O=C(Cc1ccccc1)Nc1ccc(NC(=O)C2CCCCC2)nc1
 : -3	-8.3	-0.7%	-4%	8%	0.5
> COC(=O)C(C(=O)OC)c1ccc(NC(=O)c2cccc(Cl)c2)cc1
 : -14	-2.7	.	11%	-5%[15.4 µM]	0.7
> COc1ccc(N(CC(=O)NC2CCCC2)S(=O)(=O)c2c(C)[nH]c(=O)[nH]c2=O)cc1
 : -3	0.5	-0.1%	4%	-8%	-0.2
> COc1ccc(-c2cn3c(n2)sc2cc(C(=O)NC(C)C45CC6CC(CC(C6)C4)C5)ccc23)cc1 (stereo not drawn)
 : -9	.	-30%	.	.	-0.4
> O=C(O)c1nn(Cc2ncc(-c3cccc(Cl)c3)o2)c(=O)c2ccccc12
 : -10	1.7	.	8%	-38%[15.4 µM]	0.2
> O=C(N/N=C/c1cc(Cl)ccc1O)c1cccnc1
 : -2	?	.	3%	12%	-0.2
> Cc1cc(C)cc(C(=O)NC(CC(N)=O)c2ccc(NC3CCCC3)c([N+](=O)[O-])c2)c1 (stereo not drawn)
 : 31	-0.1	1.9%	-9%	.	-0.7
> CC(=O)c1cccc(CN2CCC(C(=O)Nc3ccc(-c4cccc(C)c4)cc3)CC2)c1
 : 1	10	.	-7%	21%	1.2
> O=[N+]([O-])c1ccc2n[nH]nc2c1
 : 0	3.7	-0.9%&-0.9%	-14%	-38%[inhibitor]	0.1&-0.4
> CN1CCN(/C=C(\C#N)S(=O)(=O)c2ccc(Cl)cc2)CC1
 : -1	-0.8	2.9%	10%	-2%[15.4 µM]	-0.4
> O=C(CSc1cccc[n+]1[O-])c1cc(Cl)ccc1Cl
 : 10	-0.8	.	.	-5%[15.4 µM]	-0.4
> OCCn1c(-c2ccc(F)cc2)csc1=Nc1ccccc1
 : 9	-0.5	1.1%	3%	15%	-0.3
> CCC(=O)c1ccc(OCC(=O)OCC(=O)N2CCc3ccccc3C2)cc1
 : 4	.	-2.4%	-7%	0%	1.6
> COc1ccc(-c2nc(N)ncc2-c2ccc(Cl)cc2)c(O)c1
 : .	-6.1	0.4%	-5%	-12%	.
> CCN(CC)S(=O)(=O)c1cc(NS(=O)(=O)c2cc(Cl)ccc2Cl)ccc1C
 : -3	0.3	-2.4%	-8%	13%[15.4 µM]	2.4
> CC(=O)Oc1cccc(C(=O)Nc2c[nH]c(=O)[nH]c2=O)c1
 : -4	2.7	.	18%	-3%[15.4 µM]	-0.5
> CN(CCOc1ccc(Cl)cc1)C(=O)c1cccc(S(=O)(=O)N2CCN(Cc3ccccc3)CC2)c1
 : 1	.	-0.2%	?	?	0.3
> CCCNC(=O)CSc1c2c(nc3ccc(Cl)cc13)CCCC2
 : 0	.	-1.1%	.	.	-0.7
> COc1cccc(NC(=O)CCN2CCN(c3ccccc3)CC2)c1
 : -15	.	-0.3%	.	.	-1.2
> O=C(Nc1nsc(-c2ccccc2)n1)c1ccc(F)cc1
 : 26	-2.8	-11%	0%	-27%	1.7
> COC(=O)C1=C(O)/C(=C\c2sccc2C)N=C1C
 : 13	0.0	-1.6%	-18%	8%	0.4
> Cc1[nH]n(-c2ccccc2)c(=O)c1N=Nc1ccccc1C(=O)N1CCOCC1
 : 22	3.0	0.9%	10%	2%[15.4 µM]	-0.5
> Cc1cccc(N2CCN(C(=O)c3cnc(N4CCCC4)nc3C)CC2)c1C
 : 13	.	-9.6%	.	.	2.4
> Cc1cc(OCC(=O)NC(C)c2ccccc2)ccc1[N+](=O)[O-] (stereo not drawn)
 : 8	-11	.	-19%	-10%	-0.4
> Cc1cccc(C)c1NC(=O)CNCC(=O)Nc1c(C)cccc1C
 : 3	-2.5	.	-4%	-11%	-0.4
> COc1ccc(S(=O)(=O)Nc2ccc(OCC(=O)O)cc2)c2ccccc12
 : 6	8.7	-0.5%	-22%	17%[15.4 µM]	-0.1
> O=C(COc1ccccc1)NCCS(=O)(=O)N1CCN(c2ccccc2)CC1
 : 4	.	-0.3%	9%	-5%	-0.3
> O=C(NCCCn1ccnc1)Nc1cccc2ccccc12
 : -7	2.1	32µM*	4%	-34%[inhibitor]	-0.6
> COc1ccc(-c2cc(C(=O)OC3CCOC3=O)c3ccccc3n2)cc1OC (stereo not drawn)
 : -2	2.6	-4.1%	1%	7%	-0.4
> CCC(=O)N1CCN(c2ccccc2NC(=S)NC(=O)c2cccc([N+](=O)[O-])c2)CC1
 : 71	0.3	.	-7%	6%[15.4 µM]	-0.5
> Cc1ccc(Cl)cc1N1CCN(C(=O)c2ccc3c(c2)N(Cc2ccccc2F)C(=O)c2ccccc2S3=O)CC1 (stereo not drawn)
 : 16	.	0.2%	.	.	-1.0
> CCNS(=O)(=O)c1ccc(NC(=O)Cn2nc(C(F)(F)F)cc2C)cc1
 : -2	0.5	0.6%	1%	22%	2.5
> COc1ccc2cc(C(=O)/C=C/c3cc(OC)c(O)c(OC)c3)ccc2c1
 : 24	.	.	-19%	?	5.8
> O=C(O)c1ccc(-c2ccccn2)s1
 : -6	-3.0	.	6%	-1%[15.4 µM]	-0.7
> COc1ccc(Cl)cc1NC(=O)c1nnn(CC(=O)Nc2ccc(OC)c(OC)c2)c1N
 : 11	7.5	0.9%	-13%	-14%	3.7
> S=c1[nH]nc(Cn2cnc3ccccc32)n1-c1ccccc1
 : 11	-3.0	-0.3%	-19%	16%[15.4 µM]	-0.5
> O=C(CN(C1CCCCC1)S(=O)(=O)c1ccc(F)cc1)Nc1ccc2c(c1)OCO2
 : 30	1.8	0.3%	-9%	2%	-0.6
> O=C(O)CCC(=O)NNC(=O)CCC(=O)Nc1ccccc1
 : 3	-5.5	.	-3%	7%[15.4 µM]	1.5
> COC(=O)c1sc(S(=O)(=O)N2CCC(C(=O)O)CC2)c(C(=O)OC)c1C
 : -13	1.1	-2.1%	-11%	25%	0.6

Next structures:
Values in the order: TRPML1 blocker	Menin MLL FP FL	ClpP mod	gsp antagonist	gsp agonist	TRPML1 agonist
> N#CC(C#N)=CN=c1ccn(Cc2ccc(Cl)cc2Cl)cc1
 : -4	-5.8	-1.1%	0%	11%	-0.2
> Cc1cnc(C(=O)NC(Cc2ccccc2)c2ccccc2)cn1 (stereo not drawn)
 : 25	-6.3	.	-8%	-35%[inhibitor]	3.4
> O=C(Nc1nc(-c2ccc3c(c2)OCO3)cs1)c1ccncc1
 : 21	-2.1	-9.7%	40µM*	-45%[inhibitor]	-0.6
> Cn1c(C2CCCN2C(=O)OC(C)(C)C)n[nH]c1=S (stereo not drawn)
 : 57	8.3	-1.8%	5%	10%	0.5
> O=C(Nc1ccccc1)C(=O)Nc1ccc2c(c1)N(C(=O)C1CC1)CCC2
 : -2	.	-2.6%	-27%	2%	3.1
> CC1CCN(CCc2nc3cc(NC(=O)COc4ccc(Cl)cc4)ccc3n2C)CC1
 : 13	.	-13%	8%	8%	0.7
> Cc1nn(CC(=O)NCc2ccccc2)c(=O)c2ccccc12
 : 2	2.1	1.0%	0%	18%	-0.6
> Cn1c(CNS(=O)(=O)c2ccc(Cl)cc2)n[nH]c1=S
 : -5	-0.6	-1.5%	1%	-19%	0.0
> O=C(Nc1cccc(S(=O)(=O)N2CCOCC2)c1)C1CC1
 : 12	.	1.8%	-1%	-6%	-0.8
> Cc1ccc(OC(=O)c2ccc([N+](=O)[O-])cc2Cl)cn1
 : .	1.6	27%	4%	-17%	.
> Nc1cc2c(cc1[N+](=O)[O-])OCCOCCOCCO2
 : 20	-0.3	.	0%	-10%[15.4 µM]	-0.5
> O=C(c1ccc2ncsc2c1)N1CCN(c2cccc(C(F)(F)F)c2)CC1
 : -4	.	.	-7%	10%[15.4 µM]	0.1
> Cc1cc(C)n2nc(CNC(=O)c3cccc(N(C)C)c3)nc2n1
 : 2	.	-5.8%	.	.	1.2
> CC(C)(C)C(=O)Cn1ncc(Br)c(Br)c1=O
 : -7	6.0	0.3%	-6%	27%	-0.4
